Compound activity deposited in PubChem by National Center for Advancing Translational Sciences (NCATS).
EPAC1 ag val = Validation qHTS for agonist of cAMP-regulated guanine nucleotide exchange factor 3 (EPAC1). hit rate 1% among 16,000. Potency, µM, for the others: max response, positive = active, actives largely listed as activators. EPAC1 Rap1b BODIPY-GDP exchange, fluorescence. Rap guanine nucleotide exchange factor 3 (Homo sapiens), O95398; active means well fitted activation curve with a large enough effect; inconclusive means small, poorly fitted or top-dose-only effect; inactive means no such curve, though single readings can be large or run the other way;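 further: nearly all actives have a fitted effect of over 70% in size; series mostly up to about 76 or 150 µM; scaled to a cAMP control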
Target sequence (O95398 whole entry, looked up): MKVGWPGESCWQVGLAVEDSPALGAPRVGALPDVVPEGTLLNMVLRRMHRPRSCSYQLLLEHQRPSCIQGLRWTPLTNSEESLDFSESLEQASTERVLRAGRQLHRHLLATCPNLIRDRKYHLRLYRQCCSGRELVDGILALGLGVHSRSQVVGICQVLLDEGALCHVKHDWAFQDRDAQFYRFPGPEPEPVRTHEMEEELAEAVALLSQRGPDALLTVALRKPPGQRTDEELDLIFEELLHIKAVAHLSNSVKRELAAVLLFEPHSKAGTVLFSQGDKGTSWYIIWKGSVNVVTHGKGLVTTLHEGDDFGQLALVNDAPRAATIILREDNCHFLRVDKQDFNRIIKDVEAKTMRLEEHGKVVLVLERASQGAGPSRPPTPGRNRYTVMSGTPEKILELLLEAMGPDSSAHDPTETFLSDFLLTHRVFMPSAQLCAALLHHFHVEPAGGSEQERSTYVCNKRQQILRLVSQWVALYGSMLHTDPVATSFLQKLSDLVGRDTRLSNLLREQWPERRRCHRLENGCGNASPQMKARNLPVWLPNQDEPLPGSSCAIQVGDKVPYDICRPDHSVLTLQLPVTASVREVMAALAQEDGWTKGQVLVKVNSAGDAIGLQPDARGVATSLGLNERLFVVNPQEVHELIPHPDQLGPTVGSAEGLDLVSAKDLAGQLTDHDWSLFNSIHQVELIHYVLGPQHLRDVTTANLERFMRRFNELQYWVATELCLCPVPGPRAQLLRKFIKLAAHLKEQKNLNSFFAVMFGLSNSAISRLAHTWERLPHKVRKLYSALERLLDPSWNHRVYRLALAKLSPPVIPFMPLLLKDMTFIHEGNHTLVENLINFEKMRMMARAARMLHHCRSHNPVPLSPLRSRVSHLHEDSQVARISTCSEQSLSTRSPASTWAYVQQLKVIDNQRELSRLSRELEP
Numbers without * were called inactive; ? = inconclusive; & = joins results of further samples; [ ] = another dose, or the depositor's remark. On the % scale 0 is the no-effect control and ±100 the full control effect; potency means the concentration at half of the fitted maximal effect.

EPAC1 ag val	structure
10.2%	O=C1CC(c2ccc(O[C@@H]3OC(CO)[C@@H](O)C(O)C3O)cc2)Oc2cc(O)ccc21 (stereo not given in full)
-4.2%	CCCCCCCC/C=C\CCCCCCCC(=O)OC[C@@H](O)COP(=O)(O)O
-8.0%	O=C(c1cc(C(F)(F)F)cc(C(F)(F)F)c1)N1CCC2(CCCN(c3ccncc3)C2)CC1
28.0%	c1cncc(-c2cc(NCc3cccs3)ncn2)c1
0.3%	CCOC(=O)C[C@H]1c2cc(C(F)(F)F)ccc2S(=O)(=O)N1C(C)C
-5.0%	C[C@@H]1CN(c2c(F)c(F)c3c(=O)c(C(=O)O)cn(C4CC4)c3c2F)C[C@H](C)N1
-8.9%&21.3%	CC1CCCC(C)N1NC(=O)c1ccc(Cl)c(S(N)(=O)=O)c1 (stereo not given)
-57.0%[inhibitor]	Cc1noc(C)c1C(=O)N1CCC[C@@]2(CCN(Cc3ccccc3)C2)C1
?	O=C(/C=C/C=C/c1ccc2c(c1)OCO2)N1CCCCC1
?	c1ccc2c(c1)CCCC2C1=NCCN1 (stereo not given)
?	O=C(O)CN(CC(=O)O)CC1=CC2C(=CC1=O)Oc1cc(O)c(CN(CC(=O)O)CC(=O)O)cc1C21OC(=O)c2ccccc21 (stereo not given)
8.8%&-16.4%	NC(N)=NCc1cccc(I)c1
?	CC1(C)C=Cc2c(cc3occ(-c4ccc5c(c4)OCO5)c(=O)c3c2O)O1
?	N#CCCn1c(=O)c(-c2cccs2)nc2cnc(N3CCNCC3)nc21
-3.1%	CCC[C@H]1COCCS(=O)(=O)N1Cc1ccc(F)cc1
-21.8%	COc1ccc(OC)c(-c2cc(Cl)c3c(c2)CC(CNC(=O)[C@@H]2CCCN2C(C)=O)O3)c1 (stereo not given in full)
0.4%	COc1ccc2[nH]c(C)cc2c1
?	OCC1OC(n2cnc3c(NCc4ccco4)ncnc32)C(O)C1O (stereo not given)
3.8%&-9.7%	COc1cc(C(=O)N2CCOCC2)cc(OC)c1OC
-21.8%	COc1cc(OC)c(CN2CCOc3ccc(CN4CCC(O)CC4)cc3C2)c(OC)c1
-27.1%	COc1cc(OC)c(OC)cc1/C=c1\[nH]c(=O)/c(=C/c2cc(OC)c(OC)cc2OC)[nH]c1=O
-16.6%	Nc1ncc2[nH]cnc2n1
15.9%	CC(NC(=O)c1cccnc1)c1nnc2n1CCN(Cc1ccc(-c3ccccc3Cl)o1)CC2 (stereo not given)
-7.8%	Nc1ccc(-c2ccc3ccccc3n2)cc1
8.3%	CN(Cc1ccco1)c1nc(-c2cccnc2)nc2ccccc12

The list continues.
EPAC1 ag val	structure
8.5%	Cc1c(N)nc(C(CC(N)=O)NCC(N)C(N)=O)nc1C(=O)NC(C(=O)NC(C)C(O)C(C)C(=O)NC(C(=O)NCCc1nc(-c2nc(C(=O)NCCCN[C@@H](C)c3ccccc3)cs2)cs1)C(C)O)C(O[C@@H]1O[C@@H](CO)[C@@H](O)[C@H](O)[C@@H]1O[C@H]1O[C@H](CO)[C@@H](O)[C@H](OC(N)=O)[C@@H]1O)c1cnc[nH]1 (stereo not given in full)
-8.4%&-12.6%&-11.9%&-12.7%	COc1ccc2[nH]cc(CCNC(C)=O)c2c1
-7.2%	COc1ccc2c(c1)CCc1cnc(-n3ncc(C(=O)N4CCN(CCO)CC4)c3C3CC3)nc1-2
?	O=C(O)c1cc(O)c2c(c1)[C@H]([C@H]1c3cc(C(=O)O)cc(O)c3C(=O)c3c(O[C@@H]4O[C@H](CO)[C@@H](O)[C@H](O)[C@H]4O)cccc31)c1cccc(O[C@@H]3O[C@H](CO)[C@@H](O)[C@H](O)[C@H]3O)c1C2=O
3.3%	O=C(NCCN1CCOCC1)c1cnn(-c2nccc(-c3ccccc3C(F)(F)F)n2)c1C1CC1
-11.7%	COc1ccc(C(=O)NCC2Cc3cccc(-c4ccc(S(C)(=O)=O)cc4)c3O2)c(OC)n1 (stereo not given)
?	CC1(C)SC2C(NC(=O)COc3ccccc3)C(=O)N2C1C(=O)O (stereo not given)
-7.7%	CC(N)CCCP(=O)(O)O (stereo not given)
1.1%	O=C(c1cc(-c2ccccc2)on1)N1CCOc2ccc(CN3CCOCC3)cc2C1
4.0%&-5.3%	OC[C@H]1O[C@@H](n2cnc3c(NC4CCCC4)ncnc32)[C@H](O)[C@@H]1O
7.9%	CC[C@H]1OC(=O)[C@H](C)[C@@H](O[C@H]2C[C@@](C)(OC)[C@@H](O)[C@H](C)O2)[C@H](C)[C@@H](O[C@@H]2O[C@H](C)C[C@H](N(C)C)[C@H]2O)[C@](C)(O)C[C@H](C)C(=NOCOCCOC)[C@H](C)[C@@H](O)[C@]1(C)O
-37.9%[inhibitor]	COC(=O)[C@@]1(C)CCC[C@@]2(C)c3ccc(O)c(C(C)C)c3CCC21 (stereo not given in full)
-20.3%&10.8%&3.2%	S=P(N1CC1)(N1CC1)N1CC1
-4.9%	Cc1ccc(S(=O)(=O)NCc2ccccc2)cc1
-2.3%	Cc1nc2c(O)cccc2c(=O)[nH]1
6.9%&8.2%	CN(C)c1ccc(/C=C2\C(=O)Nc3ccccc32)cc1
-17.8%	Cn1ccnc1C1CCCCN1C(=O)CN1Cc2ccccc2OC(c2ccccc2F)C1 (stereo not given)
0.3%	CCN1C(=O)c2ccccc2C1Nc1ccc(OCCN2CCCCC2)cc1 (stereo not given)
-38.9%[inhibitor]	Cc1noc(C)c1C(=O)N1CCC2(CC1)CN(c1ncccn1)C2
-6.7%	Cc1cnc(CNc2ncnc3ccc(-c4ccc5c(c4)OCO5)cc23)cn1
18.1%	COCC(=O)N1CCC2(CC1)CN(C(=O)Nc1cccc(F)c1)C2
-64.7%[inhibitor]	COCC(=O)N1CCC2(CCN(Cc3cc(C(F)(F)F)cc(C(F)(F)F)c3)CC2)CC1
-16.5%	NC(C(=O)O)c1cc(O)cc(O)c1 (stereo not given)
5.5%	OCC1NCC(O)C(O)C1O (stereo not given)
0.0%	CCN1CCCC1CNC(=O)c1cnn(-c2nccc(-c3cc4ccccc4o3)n2)c1C1CC1 (stereo not given)

Sorted by molecular weight (smallest number first): part of the list above
EPAC1 ag val	structure
-7.7%	CC(N)CCCP(=O)(O)O (stereo not given)
-2.3%	Cc1nc2c(O)cccc2c(=O)[nH]1
-4.9%	Cc1ccc(S(=O)(=O)NCc2ccccc2)cc1
-11.7%	COc1ccc(C(=O)NCC2Cc3cccc(-c4ccc(S(C)(=O)=O)cc4)c3O2)c(OC)n1 (stereo not given)

Further records
EPAC1 ag val	structure
100µM*	COC(=O)[C@@H]1C2CC3c4[nH]c5cc(OC)ccc5c4CCN3CC2C[C@H](OC(=O)c2cc(OC)c(OC)c(OC)c2)C1OC (stereo not given in full)
-38.4%[inhibitor]	COc1ccc(-n2c(=O)cnc3cnc(OC)nc32)cc1
-12.9%	O=c1c(O)c(-c2ccccc2)oc2cc(O)ccc12
-47.0%[inhibitor]	COc1ccc(C(=O)N2CCC3(CCCN(Cc4ccccc4OC)C3)CC2)cc1
-6.4%	CC(C)C1NC(C(=O)O)Cc2c1[nH]c1ccccc21 (stereo not given)
17.9%	COc1cc(=O)n2c(c1C(=O)N(C)C(C)c1ccco1)CCN(C(=O)c1ccc(C(C)=O)cc1)CC2 (stereo not given)
-14.3%	Cc1nc2cnc(N(C)C)nc2n(Cc2cccs2)c1=O
-0.1%	COc1cc(CNCc2cc3ccc(F)cc3nc2N2CCOCC2)cc(OC)c1OC
100µM*	CN(Cc1ccco1)c1nc(-c2cccc(C#N)c2)nc2ccccc12
-4.3%	COC(=O)[C@H]1C2CC3c4[nH]c5ccccc5c4CCN3CC2CC[C@@H]1O (stereo not given in full)
-22.0%	COc1cccc(CNC(=O)c2c(OC)cc(=O)n3c2CCN(C(=O)c2ccccc2Cl)CC3)c1
-27.1%	CN(C)C(=O)c1ccc(-c2ccc3ncnc(N(C)C)c3c2)cc1
-21.5%	CCNc1ncc2nc(C)c(=O)n(Cc3ccc(F)cc3)c2n1
-34.7%[inhibitor]	CCCC(=O)O[C@]1(C(=O)COC(=O)CC)[C@@H](C)C[C@H]2[C@@H]3CCC4=CC(=O)C=C[C@]4(C)[C@@]3(F)[C@@H](O)C[C@@]21C
14.3%	Cc1ccc(C(=O)NCCc2nnc3n2CCN(Cc2ccc4ccccc4c2)CC3)c(C)c1
9.3%	O=C(Nc1ccc(Cl)cc1Cl)[C@@H]1CC=C[C@@H]2CCN(C3CCCCC3)C(=O)[C@@H]21
?	COc1ccc(NC(=O)[C@@H]2CC=C[C@@H]3CCN(Cc4ccc(Cl)c(Cl)c4)C(=O)[C@@H]32)cc1
-10.5%	COc1ccc(Oc2ncc3nc(-c4ccc(OC)cc4)c(=O)n(C)c3n2)cc1
-24.3%	CCCN1CCCC[C@H]1C(=O)Nc1c(C)cccc1C
9.0%	C=C1C2=CC(=O)OC(c3ccoc3)[C@]2(C)CCC1[C@]1(C)C=CC(=O)C(C)(C)C1CC(=O)OC (stereo not given in full)
-4.8%	COc1ccccc1CNc1nc(-c2ccoc2)nc2ccccc12
?	CC1(C)CC23C(=O)CCC(O)C2(C)CCC13 (stereo not given)
-45.7%[inhibitor]	CC(=O)N1CCC[C@@]2(CCN(c3ccncc3)C2)C1
9.8%	O=C(Cc1nc2ccccc2[nH]1)N1CCC(n2c(C3CCC3)nc3cccnc32)CC1
112µM*	CN1CCN(c2ncc3nc(-c4cn(C)c5ccccc45)c(=O)n(CCC#N)c3n2)CC1

Next section.
EPAC1 ag val	structure
2.7%	COc1cc(-c2cnc3ccccc3c2)cc2c1OCCN(S(=O)(=O)C[C@]13CC[C@H](CC1=O)C3(C)C)C2
-4.1%	CSc1nc(N)c2ncn([C@@H]3O[C@H](COP(=O)(O)OP(=O)(O)O)C(O)[C@H]3O)c2n1 (stereo not given in full)
28.9%	N#Cc1cccc(CN2CCC(=O)N([C@H](CO)Cc3ccccc3)CC2)c1
-18.6%	N#Cc1cccc(NC(=O)N2CC[C@@]3(CCCNC3)C2)c1
-28.0%	CN1CCN(c2ncc3nc(-c4ccc(Cl)cc4)c(=O)n(CCC#N)c3n2)CC1
-72.2%[inhibitor]	CCOC(=O)/C=C/c1ccc2c(c1)S(=O)(=O)N(C1CCCC1)[C@H]2CC(=O)OCC
4.1%	OCC1O[C@H]([S-])[C@H](O)[C@@H](O)[C@@H]1O.[Au+] (stereo not given in full)
-64.0%[inhibitor]	CN(C)c1ncc2nc(-c3ccccc3)c(=O)n(C[C@H]3CCCO3)c2n1
12.2%&-26.9%	Nc1ccc(S(=O)(=O)Nc2ccccn2)cc1
-32.3%[inhibitor]	COP(=O)(OC)OC(c1ccc(Cl)cc1)P(=O)(OC)OC (stereo not given)
-44.6%[inhibitor]	COCCn1c(=O)c(-c2cc(F)cc(F)c2)nc2cnc(Oc3ccccc3)nc21
-32.2%	CCCCCCCCCCCCCCCCOCC(CO)OC (stereo not given)
5.5%	OC1(c2ccc3c(c2)CN(Cc2ccco2)CCO3)CCN(c2ccccc2F)CC1
6.9%	CCC1C(=O)NCCN1Cc1ccc2c(c1)CN(Cc1cccc(OC)c1OC)CCO2 (stereo not given)
-0.3%	Cc1ncc2c(c1CNC(=O)c1ccc3c(c1)OCO3)CCN(C(=O)c1cc3ccccc3n1C)C2
9.5%	Cc1oc(-c2ccccc2NC(=O)C2CCC2)nc1CNC(=O)c1ccc(C#CC(C)(C)O)cc1
-25.2%	CCCCCC/C=C\CCCCCCCc1cccc(O)c1C(=O)O
-85.1%[inhibitor]	CC(C)=CCC/C(C)=C/CC/C(C)=C/CCC(=O)OC/C=C(\C)CCC=C(C)C
7.8%	Cc1cccc(CNc2cc(-c3ccccc3CN(C)C)ncn2)c1
100µM*	Cc1ccccc1-c1ccc2ncnc(N(C)Cc3ccco3)c2c1
-0.6%	CO/N=C(\C(=O)N[C@@H]1C(=O)N2C(C(=O)O)=C(CSc3nc(=O)c(O)nn3C)CSC12)c1csc(N)n1 (stereo not given in full)
1.0%	COc1cc(-c2cc(C)c3cccc(OC)c3n2)cc2c1OCCN(C(=O)CCn1ccc(C)n1)C2
?	COc1cc2c(cc1OC)C(C(=O)c1ccc(OC)c(OC)c1O)=NCC2
-43.3%[inhibitor]	COc1ccc(-n2c(=O)cnc3cnc(Oc4cccc(Cl)c4)nc32)cc1
-12.9%	COc1ccc(CNc2ncncc2-c2ccccc2C(F)(F)F)c(OC)c1

The results go on:
EPAC1 ag val	structure
-25.4%	N#Cc1ccc(CN2CCCC3(CCNCC3)C2)cc1
-17.4%	CC(=O)NCCNc1ncncc1-c1ccc(N(C)C)cc1
21.7%	Cc1noc(C)c1-c1nccc(N2CCN(C)CC2)n1
-76.3%[inhibitor]	O=C(Nc1ccccc1)N1CC[C@@]2(CCCN(C(=O)c3cc(C(F)(F)F)cc(C(F)(F)F)c3)C2)C1
-72.6%[inhibitor]	COc1cc(-c2noc(C)c2-c2ccc3[nH]ccc3c2)cc(OC)c1OC
?	O=C(c1ccncc1)N1CCC2(CC1)CN(c1ncccn1)C2
20.8%	COc1ccc(CN2C[C@H](Sc3nc4ccccc4[nH]3)C[C@H]2C(=O)N(C)C)c2ccccc12
-103.0%[inhibitor]	CCN(CC)c1ccc(N=Nc2ccc(S(=O)(=O)N(C)C)cc2)c(S(=O)(=O)NCC[n+]2ccccc2)c1
-1.4%	CC(=O)/C=C1\C(=O)N(C)c2ccccc21

Retrieved by structure from above (six):
EPAC1 ag val	structure
20.8%	COc1ccc(CN2C[C@H](Sc3nc4ccccc4[nH]3)C[C@H]2C(=O)N(C)C)c2ccccc12
-17.4%	CC(=O)NCCNc1ncncc1-c1ccc(N(C)C)cc1
?	O=C(c1ccncc1)N1CCC2(CC1)CN(c1ncccn1)C2
-76.3%[inhibitor]	O=C(Nc1ccccc1)N1CC[C@@]2(CCCN(C(=O)c3cc(C(F)(F)F)cc(C(F)(F)F)c3)C2)C1
-72.6%[inhibitor]	COc1cc(-c2noc(C)c2-c2ccc3[nH]ccc3c2)cc(OC)c1OC
-103.0%[inhibitor]	CCN(CC)c1ccc(N=Nc2ccc(S(=O)(=O)N(C)C)cc2)c(S(=O)(=O)NCC[n+]2ccccc2)c1

Not all compounds are listed, so the mix of outcomes need not match the whole.
